# Source: PubChem (PCMD)
# Calb biofilm kill: mixture kills Candida albicans biofilm cells; AID 1242; C. albicans biofilm persisters + clotrimazole, fluorescence viability; primary screen in compound mixtures of four per well; inhibition, % at 7.6 µM; actives 0.02% (n = 120,000);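 active means inhibition above 30.3% in the primary screen of four-compound pools, then above 30% when the compound was retested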;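 further: compounds exposed to preformed 24 h biofilms for 48 h; the number belongs to the whole pool; some results filed as inactive read as strong as hits; inactives centre near 12; 0% = biofilm with clotrimazole alone and 100% = kill control; retested singly at about 60 µM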
#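 Incubation: 24 h biofilm formation, then 48 h compound exposure, 37 °C | Material: C. albicans biofilms | Buffer or medium: RPMI/MOPS medium, pH 7.0 | Measured by: 2-h Alamar Blue fluorescence, 535/590 nm excitation/emission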
# Starred values were filed as active, the others as inactive.
mol | Calb biofilm kill
CN(C)CCOc1ccccc1Cc1ccccc1 | 18
C[C@@H]1C[C@H]2[C@@H]3C[C@H](F)C4=CC(=O)C=C[C@]4(C)[C@@]3(F)[C@@H](O)C[C@]2(C)[C@@]1(O)C(=O)COC(=O)C(C)(C)C | 14
CCCCOc1ccc(CC(=O)NO)cc1 | 20
CC[C@]1(O)C[C@@H]2CN(CCc3c([nH]c4ccccc34)[C@@](C(=O)OC)(c3cc4c(cc3OC)N(C)[C@H]3[C@@](O)(C(=O)OC)[C@H](OC(C)=O)[C@]5(CC)C=CCN6CC[C@]43[C@@H]65)C2)C1 | 19
CCCCCCCC/C=C\CCCCCCCC(=O)O | 13
O=C(Nc1ccc(C(=O)O)c(O)c1)c1ccccc1 | 4
NC(N)=NC(=O)Cc1c(Cl)cccc1Cl | 7
Cc1[nH]c2ccccc2c1/C=N/NC(N)=S | 17
C=C1c2cccc(O)c2C(O)=C2C(=O)[C@]3(O)C(O)=C(C(N)=O)C(=O)[C@@H](N(C)C)[C@@H]3[C@@H](O)[C@H]12 | 24
COc1ccc2ccc(=O)oc2c1 | 12
Cc1cccc(C)c1NC(=O)C1CCCCN1C (stereo unspecified) | 8
COc1ccc2nc(NC(=O)Nc3ccccc3)sc2c1 | 4
O=c1cc(-c2ccc(O)cc2)oc2cc(O[C@@H]3O[C@H](CO)[C@@H](O)[C@H](O)[C@H]3O[C@@H]3OC[C@](O)(CO)[C@H]3O)cc(O)c12 | 1
CCCCC1C(=O)N(c2ccccc2)N(c2ccccc2)C1=O | 16

# Another view of some results above:
Structure: CCCCCCCC/C=C\CCCCCCCC(=O)O
- Calb biofilm kill: 13
Structure: Cc1cccc(C)c1NC(=O)C1CCCCN1C (stereo unspecified)
- Calb biofilm kill: 8
Structure: Cc1[nH]c2ccccc2c1/C=N/NC(N)=S
- Calb biofilm kill: 17

# 2 records drawn at random from those above, as already listed:
mol | Calb biofilm kill
CCCCCCCC/C=C\CCCCCCCC(=O)O | 13
NC(N)=NC(=O)Cc1c(Cl)cccc1Cl | 7

# The list is partial; the hit share may differ from the screen's.
